High-throughput results (PubChem BioAssay)
ClpP mod: qHTS Assay for Activators of ClpP | ATP-dependent Clp protease proteolytic subunit (Bacillus subtilis (strain 168)), P80244 | purified B. subtilis ClpP, FRET peptide cleavage, 20 min | Potency, µM (series often up to 57.5 µM), without a hit: at the highest dose activity change, negative = active | 340,000 compounds, 1.9% hits | AID 651965, 2013; active = well fitted falling curve with a large enough effect; inconclusive = small, poorly fitted or top-dose-only effect; inactive = no such curve, though single readings can be large or run the other way; also: potency is read from the fitted curve at half-maximal effect; the source files actives as falling curves though it sought activators and does not explain the sign; nearly all actives have a fitted effect of over 65% in size; many hits overshoot -100%
Target sequence (P80244 whole entry, looked up): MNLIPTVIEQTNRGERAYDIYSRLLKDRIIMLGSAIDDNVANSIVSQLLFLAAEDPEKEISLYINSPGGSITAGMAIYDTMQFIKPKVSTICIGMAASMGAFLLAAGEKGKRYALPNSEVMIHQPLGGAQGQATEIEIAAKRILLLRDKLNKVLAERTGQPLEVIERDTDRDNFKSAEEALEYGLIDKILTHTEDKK
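Buffer: 100 mM Tris/HCl pH8, 100 mM KCl, 0.05% low protease BSA, 2.5% glycerol, 0.01% Tween-20. ClpP 10 microg/mL final; 20 min RT; delta FRET normalized to ADEP and DMSO controls.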
CtBP-E1A inh: blocks the CtBP interaction with E1A; 340,000 compounds, 0.49% hits; AlphaScreen GST-E1A/His-CtBP binding, 1536-well; stronger effect = lower value; control for the full effect not named in the record; activity change, % (no concentration beside the values); in the data active means activity change below about -65%; inconclusive means about -30% to -65%; inactive means above about -30%; also: % is scaled to controls: 0 for no effect and ±100 for the full control effect
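Homogeneous bead-based format: GST-tagged E1A captured on glutathione donor beads, His-tagged CtBP on nickel acceptor beads; compounds precede bead addition by 2 h at 37 °C.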
The depositor's hits bear a star; ? = inconclusive. An excerpt; count on the stated rates, not on these rows.

cpd	smiles	ClpP mod	CtBP-E1A inh
1	CC1(C(=O)Nc2ccc3c(c2)OCO3)CCN1C(=O)C1CCCCC1 (stereo unspecified)	-1.7%	4
2	COc1ccc(CCC(=O)N2c3ccccc3N=C(c3ccc(C(F)(F)F)cc3)C2C(=O)NC2CCCC2)cc1 (stereo unspecified)	?	-2
3	CSc1ccc(-c2cc3c(c4c2ccn4C)C2CCC3O2)cc1 (stereo unspecified)	5.0%	-25
4	Cc1cccc(-c2cccc3nccn23)c1	4.6%	4
5	CCCCCn1nnnc1-c1nc2cc3ccccc3cc2[nH]c1=O	-3.3%	?
6	COC(=O)[C@@]12C[C@@H](CC(=O)NCC3CCCCC3)C(=O)N(Cc3ccco3)C1=CCC(C)(C)C2	0.9%	-6
7	OC(c1ccccc1)c1nc(-c2ccc3c(c2)OCO3)cs1 (stereo unspecified)	-2.0%	3
8	COc1cc(NC(=O)c2cccc3c(-c4cccnc4)coc23)cc(OC)c1OC	-1.0%	-15
9	O=C(NCc1ccccc1)C1C(c2ccccc2)=Nc2ccccc2N1C(=O)c1cccnc1 (stereo unspecified)	-0.1%	-13
10	CCC(=O)N1CCCC1(C)C(=O)Nc1ccc(C)c(C)c1 (stereo unspecified)	0.6%	7
11	COc1ccc(NC(=O)C2(C)Cc3c(-c4cccc(NC(C)=O)c4)ccnc3O2)cc1OC (stereo unspecified)	-7.7%	-8
12	COc1ccc(-c2coc3c(C(=O)Nc4ccc(OC)nc4)cccc23)c(C)c1	-27%	0
13	CN(C)CCNc1nc(Oc2ccccc2)c2sccc2n1	-2.8%	3
14	Cc1ccc2nc(-c3ccco3)c(Cc3cccc(Cl)c3)n2c1	5.4%	-23
15	Cc1ccc(S(=O)(=O)NC(=O)C2(C)CCN2C(=O)Cc2ccc(C(C)(C)C)cc2)cc1 (stereo unspecified)	0.6%	1
16	CC1(C(=O)Nc2ccc3c(c2)OCCO3)CSCC(=O)N1CCCn1ccnc1 (stereo unspecified)	-0.5%	-11
17	CC1(C(=O)NCc2ccc3c(c2)OCO3)CCN1C(=O)CC1CCCC1 (stereo unspecified)	0.0%	11
18	CCOC(=O)C1=CCN(S(=O)(=O)c2ccc(Cl)cc2)C1c1ccc(C)cc1 (stereo unspecified)	-1.4%	2
19	CC(C)c1cccc(-c2csc(C(O)c3cccc(Cl)c3)n2)c1 (stereo unspecified)	0.4%	14
20	COCCCNC(=O)CC[C@H]1O[C@@H](n2cnc3c(NC(=O)c4ccccc4)ncnc32)[C@H](O)[C@@H]1O	0.2%	7
21	CC(C)C(=O)N1CCC1(C)C(=O)Nc1ccc2cn[nH]c2c1 (stereo unspecified)	-2.3%	0
22	CN1CCN(C2CN(Cc3cn(Cc4ccccc4F)nn3)S(=O)(=O)C2)CC1 (stereo unspecified)	-2.5%	-2
23	COc1cccc(C(O)c2nc(-c3ccncc3)cs2)c1 (stereo unspecified)	-1.1%	-1
24	COC(=O)C1(C(=O)OC)C/C=C\CCN(S(=O)(=O)c2ccccc2[N+](=O)[O-])CC1	2.3%	-9
25	CC1=C(C(=O)N(C)C)CC(CC(=O)NC2CCCCC2)C(=O)N1Cc1ccc(F)cc1 (stereo unspecified)	2.0%	6
26	CC(C)(C(=O)N1CCC1(C)C(=O)NS(=O)(=O)c1ccc(Cl)s1)c1ccccc1 (stereo unspecified)	0.1%	5
27	CN1CCN(c2ccc(CNC(=O)C3(C)Cc4c(-c5ccc(C(N)=O)cc5)ccnc4O3)cc2)CC1 (stereo unspecified)	-7.5%	0
28	Cc1ccc2nc(-c3cccc(Cl)c3)c(Cc3cccc(F)c3)n2c1	?	-4
29	CC(C)NC(=O)c1ccc2sc([C@@H]3O[C@H](CO)[C@H](O)[C@H](O)[C@H]3O)nc2c1	-0.8%	7
30	COC(=O)[C@]12CCCCC=C1N(Cc1ccco1)C(=O)[C@H](CC(=O)N1CCN(C(=O)C3CC3)CC1)C2	1.9%	-4
31	O=C(Nc1ccccc1)c1cc(C2CCCN(C(=O)c3cccs3)C2)on1 (stereo unspecified)	1.0%	2
32	Cc1ccsc1C(=O)N1CCC1(C)C(=O)Nc1ccc2c(c1)OCCO2 (stereo unspecified)	-4.3%	1
33	CCc1nc2c(OCc3ccc(F)c(F)c3)cccn2c1N(C)C(=O)c1ccco1	-1.6%	6
34	O=C(Nc1cccc(Cc2ccccc2)c1)Nc1cccc2[nH]c([C@@H]3O[C@H](CO)[C@@H](O)[C@H](O)[C@H]3O)nc12	0.3%	1
35	Cc1ccc(-c2nc3ccc(Br)cn3c2Cc2ccccc2C(F)(F)F)cc1	-24%	-6
36	O=C(CC[C@H]1O[C@@H](n2cnc3c(NC(=O)c4ccccc4)ncnc32)[C@H](O)[C@@H]1O)NCC(c1ccccc1)c1ccccc1	1.1%	2
37	Cc1cnc2ccc(F)cc2c1	-1.5%	2
38	COc1ccc(CNC(=O)c2ccc(-c3cnn(C)c3)c3ccoc23)cc1OC	-26%	-21
39	O=C1c2ccccc2C(c2nnnn2-c2ccc3ccccc3c2)N1C1CC1 (stereo unspecified)	-1.6%	3
40	O=C(Nc1nnc([C@H]2C[C@H](O)[C@@H](CO)O2)s1)c1ccccc1F	-3.7%	5

The list goes on.
The line under a structure holds: ClpP mod	CtBP-E1A inh
(41) CN(CCc1ccccc1)c1cc2c(c3c1ccn3C)C1CCC2O1 (stereo unspecified)
 : -25%	?
(42) OC[C@@H]1CN(Cc2ccc(-c3ccccc3)cc2)C[C@H](n2cnc3c(Nc4ccccc4)ncnc32)O1
 : 5.2%	-14
(43) CC(=O)CC1c2cc(F)ccc2C=C(c2ccsc2)N1c1ccc(C#CC2(O)CCCCC2)cc1 (stereo unspecified)
 : 5.2%	2
(44) OC[C@@H]1CN(Cc2ccc(Cl)cc2)C[C@H](n2cnc3c(NC4CCCC4)ncnc32)O1
 : -1.0%	1
(45) CSc1ccc(CNC(=O)C2(C)CCCN(C(C)C)C2)cc1 (stereo unspecified)
 : -0.4%	4
(46) CCc1nc2ccc(C(=O)NCCCn3ccnc3)cn2c1N(C)Cc1nccs1
 : -3.6%	-15
(47) COc1ccc(C(N)c2csc(Nc3ccc(S(C)(=O)=O)cc3)n2)cc1 (stereo unspecified)
 : -10%	-8
(48) CC1(C(=O)Nc2ccc3nc[nH]c3c2)CCN1C(=O)C/C=C/c1ccccc1 (stereo unspecified)
 : -0.9%	-7
(49) CC(C)Oc1cc(F)ccc1-c1cc(C(=O)NCc2cccs2)[nH]n1
 : -8.6%	-21
(50) CC(C)NC(=O)c1csc(COCCO)n1
 : -2.0%	12
(51) CCOC(=O)C1(C)CCN1C(=O)c1ccccc1C (stereo unspecified)
 : -3.4%	-1
(52) CC(C)Nc1nc(-c2ccccc2CO)c2sccc2n1
 : 4.1%	-3
(53) Cc1cccc(S(=O)(=O)NC(=O)C2(C)CCN2C(=O)Cc2ccccc2)c1 (stereo unspecified)
 : 2.5%	11
(54) COc1ccc(NC(=O)C2(C)Cc3c(-c4ccccc4)ccnc3O2)cn1 (stereo unspecified)
 : -0.5%	6
(55) CC(C)(C)c1ccc(C(=O)N2CCC2(C)C(=O)Nc2cnc3ccccc3c2)cc1 (stereo unspecified)
 : -2.3%	1

An excerpt of these results, field by field.
54. COc1ccc(NC(=O)C2(C)Cc3c(-c4ccccc4)ccnc3O2)cn1 (stereo unspecified)
  ClpP mod: -0.5%
  CtBP-E1A inh: 6

43. CC(=O)CC1c2cc(F)ccc2C=C(c2ccsc2)N1c1ccc(C#CC2(O)CCCCC2)cc1 (stereo unspecified)
  ClpP mod: 5.2%
  CtBP-E1A inh: 2

50. CC(C)NC(=O)c1csc(COCCO)n1
  ClpP mod: -2.0%
  CtBP-E1A inh: 12

(list continues)
The line under a structure holds: ClpP mod	CtBP-E1A inh
(56) CC[C@H](C)[C@@H](CO)NC(=O)[C@H]1O[C@@H](n2ccc(N)nc2=O)[C@H](O)[C@@H]1O
 : 2.1%	3
(57) CSc1ccc(Cn2c(C)c(C(=O)NCc3ccco3)sc2=O)cc1
 : 0.8%	-11
(58) COc1ccc(S(=O)(=O)N2CCCCC2c2cc(C(=O)Nc3ccccc3Cl)no2)cc1 (stereo unspecified)
 : -20%	-19
(59) COC(=O)[C@@]12C[C@@H](CC(=O)N3CCOCC3)C(=O)N(Cc3ccco3)C1=CCC(C)(C)C2
 : 3.7%	-6
(60) CCc1nc2ccc(C(=O)Nc3ccc(OC)c(OC)c3)cn2c1N(CC)CCOC
 : -12%	0
(61) O=C([C@H]1O[C@@H](n2ccc(=O)[nH]c2=O)[C@H](O)[C@@H]1O)N1CCSC1
 : 1.7%	3
(62) OC(c1ccc(F)c(F)c1)c1nc(-c2cccc(C(F)(F)F)c2)cs1 (stereo unspecified)
 : ?	23
(63) CCCCC[C@H](C)N1C[C@@H](COCc2ccccc2)Oc2cc(N3CC[C@@H](O)C3)ccc2S1(=O)=O
 : ?	-2
(64) NC(=O)c1ccc(-c2ccc(N3C(c4ccsc4)=Cc4ccc(F)cc4C3CC(=O)c3ccco3)cc2)cc1 (stereo unspecified)
 : -18%	-26
(65) CC(C)Oc1ccc(F)cc1-c1cc(C(=O)NCc2cccs2)[nH]n1
 : -0.2%	-1
(66) CC1(C(=O)NS(C)(=O)=O)CCN1C(=O)CC(c1ccccc1)c1ccccc1 (stereo unspecified)
 : -0.7%	8
(67) CC(C)(C)OC(=O)N1CCc2onc(-c3ccccc3[N+](=O)[O-])c2C1=O
 : 1.8%	-2
(68) COc1ccc(-c2csc(C(O)c3ccccc3)n2)cc1 (stereo unspecified)
 : 1.0%	0
(69) COc1ccc(-c2csc(C(O)c3ccccc3)n2)cn1 (stereo unspecified)
 : -1.1%	-3
(70) CCCCC[C@@H](C)N1C[C@H](COCc2ccccc2)Oc2cc(N3CCC[C@@H]3CO)ccc2S1(=O)=O
 : -30%	-1
(71) CC(C)C[C@H]1CNC(=O)C(=O)N1CC1CCN(CCC(C)c2ccccc2)CC1 (stereo partly specified)
 : -4.7%	-4
(72) CC1(C(=O)NS(=O)(=O)c2ccc(C#N)cc2)CCN1C(=O)c1cccc(F)c1 (stereo unspecified)
 : -4.6%	0
(73) Cc1ccc(S(=O)(=O)C[C@@H]2OC3CCCCC3N2S(=O)(=O)c2ccc(C)cc2)cc1 (stereo partly specified)
 : -1.9%	-6
(74) COc1ccc(C2=Nc3ccccc3N(C(=O)c3ccncc3)C2C(=O)NC(C)C)cc1 (stereo unspecified)
 : -1.4%	-6
(75) COc1ccc(C(C)(O)c2nc(-c3ccc(OC)nc3)cs2)cc1 (stereo unspecified)
 : -5.8%	-14
(76) CC(C)NC(=O)OC1CC2CC1[C@H]1CCCCN1C2=O (stereo partly specified)
 : 0.6%	3
(77) CCc1ccccc1Oc1nc(NC(C)C)nc2ccsc12
 : ?	3
(78) CCCCC[C@H]1CCCCC[C@@H](O)C[C@H](O)[C@H](O)/C=C/C(=O)O1
 : -0.8%	2
(79) Cn1c(NCc2ccc3occc3c2)nc2cc(-c3cccc(C(F)(F)F)c3)sc2c1=O
 : -1.3%	5
(80) CCc1nc2c(OCc3ccc(C(F)(F)F)cc3)cccn2c1N(C)C(=O)c1ccncc1
 : 1.7%	0
(81) CCc1nc2ccc(C(=O)N3CCN(S(=O)(=O)CC)CC3)cn2c1N(C)CCC(C)C
 : -0.2%	6
(82) c1cnc2c(-c3cccc4nccn34)cccc2c1
 : -8.7%	-6
(83) CC(=O)Nc1ccc(C(=O)N2CCCCC2c2cc(C(=O)Nc3ccccc3Cl)no2)cc1 (stereo unspecified)
 : -3.0%	-4
(84) COc1ccc(C(NC(=O)C2CCN(CCCOc3ccccc3)CC2)c2ccccn2)cc1 (stereo unspecified)
 : 0.9%	-1
(85) CNC(=O)C1(C)Cc2c(-c3ccc4c(c3)OCO4)ccnc2O1 (stereo unspecified)
 : 3.8%	2
(86) CC(C)(O)C#Cc1ccc(N2C(c3ccsc3)=Cc3ccc(F)cc3C2c2c[nH]c3ccccc23)cc1 (stereo unspecified)
 : 4.7%	7
(87) Cc1cccc(S(=O)(=O)NC(=O)C2(C)CCN2C(=O)c2sccc2C)c1 (stereo unspecified)
 : 0.5%	1
(88) CCCCCCSc1ccc(-c2nc3ccc(C)cn3c2NCCCC)cc1OC
 : 4.5%	-7
(89) O=C(Nc1ccc2c(c1)OCO2)c1cc(C2CCCCN2C(=O)CCc2ccccc2)on1 (stereo unspecified)
 : 1.6%	-11
(90) CC(C)C[C@H]1COc2cccc(N3CCSCC3)c2S(=O)(=O)N1
 : -0.9%	1
(91) CCCCNC(=O)c1nc(C2CCN(S(=O)(=O)c3ccccc3C(F)(F)F)CC2)oc1-c1cccc(C(F)(F)F)c1
 : -27%	5
(92) CC1(C(=O)NS(=O)(=O)c2cccs2)CCN1C(=O)c1cccc(F)c1 (stereo unspecified)
 : 0.5%	7
(93) CC1(C(=O)NS(=O)(=O)Cc2cccc(Cl)c2)CCN1C(=O)C1(c2ccc(Cl)cc2)CC1 (stereo unspecified)
 : 1.4%	-1

Whole records, quoted from the list:
Shown for `CC1(C(=O)NS(=O)(=O)Cc2cccc(Cl)c2)CCN1C(=O)C1(c2ccc(Cl)cc2)CC1` (stereo unspecified) → ClpP mod: 1.4%; CtBP-E1A inh: -1
Shown for `CCCCNC(=O)c1nc(C2CCN(S(=O)(=O)c3ccccc3C(F)(F)F)CC2)oc1-c1cccc(C(F)(F)F)c1` → ClpP mod: -27%; CtBP-E1A inh: 5
Shown for `CCCCCCSc1ccc(-c2nc3ccc(C)cn3c2NCCCC)cc1OC` → ClpP mod: 4.5%; CtBP-E1A inh: -7
